N370S GC mod: qHTS Assay for Inhibitors and Activators of N370S glucocerebrosidase as a Potential Chaperone Treatment of Gaucher Disease; Potency, µM (top dose mostly 59.4 µM), for the others: at the highest dose activity change, negative = inhibition, usual class: inhibitors; N370S GC spleen homogenate, 4MU-glucoside fluorescence; Lysosomal acid glucosylceramidase (Homo sapiens), P04062; AID 2101, 2009; hit rate 0.092% among 330,000;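 further: 0% = full enzyme activity and -100% = no enzyme basal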
TDP1 block: qHTS Assay for Inhibitors of Tyrosyl-DNA Phosphodiesterase (TDP1) | Potency, µM (doses to about 130 µM), for inactives: at the highest dose activity change, negative = inhibition, usual class: inhibitors | Tyrosyl-DNA phosphodiesterase 1 (Homo sapiens), Q9NUW8 | AID 485290, 2010 | hit rate 0.28% among 350,000 | recombinant TDP1, AlphaScreen DNA substrate cleavage; further: nearly all actives have a fitted effect of over 40% in size
Target sequence (Q9NUW8 whole entry, looked up): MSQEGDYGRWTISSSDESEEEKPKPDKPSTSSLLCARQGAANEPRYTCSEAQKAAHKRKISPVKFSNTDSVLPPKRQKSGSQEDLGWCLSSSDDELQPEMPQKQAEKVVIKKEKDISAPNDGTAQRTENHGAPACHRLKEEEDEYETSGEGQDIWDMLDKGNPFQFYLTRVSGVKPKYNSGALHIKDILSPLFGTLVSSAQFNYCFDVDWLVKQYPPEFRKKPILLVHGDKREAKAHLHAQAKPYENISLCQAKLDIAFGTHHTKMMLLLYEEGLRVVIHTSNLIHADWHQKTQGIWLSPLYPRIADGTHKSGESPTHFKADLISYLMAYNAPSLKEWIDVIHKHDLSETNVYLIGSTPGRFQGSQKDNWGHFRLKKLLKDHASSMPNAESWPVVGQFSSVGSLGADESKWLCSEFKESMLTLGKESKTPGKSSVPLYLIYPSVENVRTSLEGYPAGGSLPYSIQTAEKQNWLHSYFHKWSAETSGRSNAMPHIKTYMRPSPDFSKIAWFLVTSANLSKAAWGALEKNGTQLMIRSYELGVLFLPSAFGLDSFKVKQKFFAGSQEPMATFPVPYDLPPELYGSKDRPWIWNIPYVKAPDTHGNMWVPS
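Compounds were preincubated with Tdp1 (1 nM final) for 15 min at room temperature before substrate (15 nM final) started a 5 min reaction; beads (10 ug/ml final) were then added for 10 min before AlphaScreen detection.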
* hit, by the source's call; u = inconclusive; x = not tested or not shown; & = joins results of further samples; [ ] = another dose, or the depositor's remark. The call rests on the fitted dose curve; in most records, active means well fitted curve in the direction sought with a large enough effect; inconclusive means small, poorly fitted or top-dose-only effect, or another doubt; inactive means no such curve, though single readings can be large; an effect the other way counts as inactive or inconclusive. Unless noted, on the % scale 0 is the no-effect control and ±100 the full control effect; potency means the concentration at half of the fitted maximal effect. The list is partial; most or all hits stand in other tables.

SMILES	N370S GC mod	TDP1 block
O=C(Nc1ncc(Cc2ccccc2Cl)s1)C1=NCCN1	-7%	7%
Nc1nc(SCc2ccccc2Cl)ns1	11%	5%
Cc1sc2nc(COC(=O)c3ccc(N4CCCC4)c([N+](=O)[O-])c3)[nH]c(=O)c2c1C	11%	-5%
COc1ccc(C2SCC(C(=O)O)N2C(C)=O)cc1OC (centres undefined)	0%	3%
COc1ccc(Nc2cc(C)nc3nc(C)nn23)cc1Cl	-5%	4%
Cc1c(-c2cccs2)[n+](=O)c2c(n1[O-])CCCC2	3%	-2%
CC(=O)Nc1ccc(C(=O)CSc2nnnn2C(C)C)cc1	-18%	8%
COc1ccccc1CC(=O)O/N=C(\N)c1ccccn1	-4%	x
Cn1c(SCC(=O)N2CCCCC2)nc2c(c1=O)SCC2	-22%	8%
CCCCCCC1/C(=N/O)CCC1C(=O)OC (centres undefined)	-1%	3%
COc1cc(C2=NOC(C(=O)NCc3ccc(F)cc3)C2)cc(OC)c1OC (centres undefined)	-7%	-9%
CC(CC(=O)N(C)c1c(N)n(Cc2ccccc2)c(=O)[nH]c1=O)c1ccccc1 (centres undefined)	-3%	x
C#C[C@]1(O)CC[C@H]2[C@@H]3CCc4cc(O)ccc4[C@H]3CC[C@@]21C	-11%&-7%&-5%	-6%&8%&8%
NNC(=O)C(Cc1cnc[nH]1)NC(=O)OCc1ccccc1 (centres undefined)	-3%	x
CC(=O)Nc1ccc(-c2csc(NC=C3C(=O)OC(C)(C)OC3=O)n2)cc1	-28%	0%
COc1ccccc1NS(=O)(=O)c1ccc2ccccc2c1	6%	x
CN(c1ccccc1)S(=O)(=O)c1ccc(C(=O)OCC(=O)N2CCOCC2)cc1	0%	4%
Cc1ccc(Cn2cc(SCC(N)=O)c3ccccc32)cc1	21%	6%
Cc1ccc(N2CC(C(=O)Nc3ccc(S(=O)(=O)Nc4nccc(C)n4)cc3)CC2=O)cc1 (centres undefined)	1%	0%
Cc1cc(C)n(C(=O)c2ccc(C)c(S(=O)(=O)N3CCOCC3)c2)n1	-5%	-5%
c1cc(-c2nnc3n2CCC3)[nH]n1	-8%	3%
CCC/C(=N\NC(=O)c1ccc(OC)c(OC)c1)c1ccccc1	-1%	5%
Cc1ccc(C)c(NC(=O)C2CCCN2C(=O)OC(C)(C)C)c1 (centres undefined)	7%	-2%
Cc1ccc(-n2nc3c(Cl)nnc(C)c3c2C)cc1	u	8%

Taken from above, 19 compounds:
SMILES	N370S GC mod	TDP1 block
Cc1sc2nc(COC(=O)c3ccc(N4CCCC4)c([N+](=O)[O-])c3)[nH]c(=O)c2c1C	11%	-5%
COc1ccc(C2SCC(C(=O)O)N2C(C)=O)cc1OC (centres undefined)	0%	3%
COc1ccc(Nc2cc(C)nc3nc(C)nn23)cc1Cl	-5%	4%
Cc1c(-c2cccs2)[n+](=O)c2c(n1[O-])CCCC2	3%	-2%
CC(=O)Nc1ccc(C(=O)CSc2nnnn2C(C)C)cc1	-18%	8%
COc1ccccc1CC(=O)O/N=C(\N)c1ccccn1	-4%	x
Cn1c(SCC(=O)N2CCCCC2)nc2c(c1=O)SCC2	-22%	8%
CCCCCCC1/C(=N/O)CCC1C(=O)OC (centres undefined)	-1%	3%
COc1cc(C2=NOC(C(=O)NCc3ccc(F)cc3)C2)cc(OC)c1OC (centres undefined)	-7%	-9%
CC(CC(=O)N(C)c1c(N)n(Cc2ccccc2)c(=O)[nH]c1=O)c1ccccc1 (centres undefined)	-3%	x
C#C[C@]1(O)CC[C@H]2[C@@H]3CCc4cc(O)ccc4[C@H]3CC[C@@]21C	-11%&-7%&-5%	-6%&8%&8%
NNC(=O)C(Cc1cnc[nH]1)NC(=O)OCc1ccccc1 (centres undefined)	-3%	x
CC(=O)Nc1ccc(-c2csc(NC=C3C(=O)OC(C)(C)OC3=O)n2)cc1	-28%	0%
COc1ccccc1NS(=O)(=O)c1ccc2ccccc2c1	6%	x
CN(c1ccccc1)S(=O)(=O)c1ccc(C(=O)OCC(=O)N2CCOCC2)cc1	0%	4%
Cc1ccc(Cn2cc(SCC(N)=O)c3ccccc32)cc1	21%	6%
Cc1ccc(N2CC(C(=O)Nc3ccc(S(=O)(=O)Nc4nccc(C)n4)cc3)CC2=O)cc1 (centres undefined)	1%	0%
Cc1cc(C)n(C(=O)c2ccc(C)c(S(=O)(=O)N3CCOCC3)c2)n1	-5%	-5%
c1cc(-c2nnc3n2CCC3)[nH]n1	-8%	3%

Next part.
SMILES	N370S GC mod	TDP1 block
CC(C)(C)C1CCc2onc(C(=O)NC3CCCC3)c2C1 (centres undefined)	u	-3%
N#CCCn1c(SCC(=O)NCCc2ccc(F)cc2)nc2ccccc21	4%	4%
Cn1ccnc1C(O)c1ccco1 (centres undefined)	17%	2%
CC1CCCCN1CC(O)COCc1ccccc1 (centres undefined)	-1%	x
CCOC(=O)c1cnc(SCC)[nH]c1=O	0%&0%	1%
COc1ccccc1NC(=O)CCCCCN1C(=O)c2cccc3cccc(c23)C1=O	-17%	x
COc1ccccc1OCc1cc(C(=O)NCc2ccc(N3CCCC3=O)cc2)no1	-4%	2%
COc1ccc(NC(=O)c2ccccc2-c2ccc(C(F)(F)F)cc2)cc1S(=O)(=O)N1CCOCC1	-7%	2%
O=C(NCCCN1CCCC1=O)c1ccc(NS(=O)(=O)c2cccc([N+](=O)[O-])c2)cc1	-12%	-9%
CCOC(=O)c1cnc2cc(-c3ccc(Cl)cc3)nn2c1N	2%	6%
O=C(COC(=O)C1CC(=O)N(c2ccc3c(c2)OCCO3)C1)NC1CCCc2ccccc21 (centres undefined)	4%	-2%
O=C(CSc1cn(CC(=O)N2CCOCC2)c2ccccc12)N1CCOCC1	1%	6%
CCOC(=O)c1cc2occc2n1CC(=O)NC1CCCCC1C (centres undefined)	6%	6%[56.1 µM]
CC(=O)N/C(=N/c1nc(C)cc(C)n1)Nc1ccc(NC(C)=O)cc1	-2%	1%
Cc1cccc(NS(=O)(=O)c2csc(C(N)=O)c2)c1	0%	x
C=CCc1ccccc1OCC(O)CNC (centres undefined)	-6%	1%
CN(C)N1C(N)=C(C#N)C(c2cccs2)C2=C1CC(C)(C)CC2=O (centres undefined)	1%	-1%
Cc1cc(=O)oc(C)c1C(=O)NCc1ccccn1	1%	-2%
COc1cc(CC(NC(C)=O)C(=O)NC2CCN(c3nc(C)cc(C)c3C#N)CC2)cc(OC)c1 (centres undefined)	u	-1%
CCOC(=O)CCNC(=O)N1CCCC(CNS(=O)(=O)Cc2ccccc2)C1 (centres undefined)	-2%	-1%
COc1ccc(OC)c(S(=O)(=O)N(C)CC(=O)N2CCCCC2)c1	-5%	3%[56.1 µM]
COCCNC(=S)N/N=C(\C)c1ccc(Cl)s1	-8%	11%
O=[N+]([O-])c1cc(-c2nnc(C34CC5CC(CC(C5)C3)C4)o2)cc([N+](=O)[O-])c1	2%	2%
C/C(=N\Nc1ccc(C(=O)O)cc1)c1ccc(S(=O)(=O)NCc2ccco2)cc1	-14%	-1%
CCN(CC)CCNC(=O)C1CCN(S(=O)(=O)N2CCCCC2)CC1	0%	-3%
CC1CN(C(=O)C(c2ccccc2)c2ccccc2)CC(C)O1 (centres undefined)	2%	-3%
c1ccc(Cn2c(CN3CCCC3)nc3ccccc32)cc1	13%	4%
CCc1ccc2c(CN(C)Cc3ccccc3OC)cc(=O)oc2c1	-2%	x
O=S1(=O)NC(=NCc2ccco2)c2ccccc21	6%	0%
Nc1ccn(-c2ncc(C(F)(F)F)cc2Cl)c(=O)n1	1%	0%
c1ccc2[nH]c(CN3CCCCC3)nc2c1	1%	4%
Oc1ccc(Nc2ncnc3c2oc2ccccc23)cc1	1%	x
Cc1nn(C)c(C)c1CN(Cc1nc(CCC(C)C)no1)C(C)C	-1%	-8%
COc1ccccc1NS(=O)(=O)c1cc(NC(=O)Nc2cccc(C)c2)ccc1N1CCCCC1	7%	3%
COc1cccc(/C=N/n2c(-c3cc(C)[nH]n3)n[nH]c2=S)c1O	-4%	3%
CCOC(=O)c1c(NC(=O)C(C)Sc2nnc(C)c(=O)[nH]2)sc2c1CCCC2 (centres undefined)	29%	8%
O=C(Nc1ccccc1)N(C1=NCCC1)c1ccccc1	4%	3%
CCOc1cc(NC(=S)NCC(C)C)c(OCC)cc1NC(=O)c1ccco1	3%	0%
Cc1ccc(C)c(NC(=O)c2cnc3n(c2=O)CCS3)c1	-3%	6%
COc1ccccc1N(C)S(=O)(=O)c1ccc(C(=O)OCC(=O)NCc2ccco2)cc1	-3%	6%
O=C(Oc1cccnc1)c1ccc([N+](=O)[O-])cc1	8%	-3%
Cc1ccc(C(=O)NCCNC(=O)CN2CCOCC2)cc1	0%	0%
CCC(COC)NC(=O)c1ccc(OC)c(OC2CCN(C(C)=O)CC2)c1 (centres undefined)	2%	3%
CC1CC(C)CN(C(=O)CN2C(=O)NC3(CCCCCCC3)C2=O)C1 (centres undefined)	x	-1%
O=C1c2cccc(OCc3ccc(F)cc3)c2CCN1Cc1ccccc1	4%	4%
CC(C)Cc1nc2n[nH]c(N)c2c2c1CCC2	4%	5%
COc1ccc2nc(NC(=O)CSc3nnnn3C3CCCCC3)sc2c1	12%	4%
O=C(COC(=O)C1CCN(S(=O)(=O)c2ccc3c(c2)OCCO3)CC1)Nc1cccc2ccccc12	-13%	2%
CCOC(=O)C1=C(C)NC(=O)NC1c1c(C)nn(-c2ccccc2)c1Cl (centres undefined)	7%	-7%
COC(=O)C1(Cc2cc(-c3ccc([N+](=O)[O-])cc3)no2)CCN(C(=O)OC(C)(C)C)CC1	-7%	2%
S=C(NCCc1ccccc1)N1CCn2cccc2C1c1ccncc1 (centres undefined)	-7%	4%
O=C(NCc1ccccn1)C1CCCN(S(=O)(=O)c2ccc(Br)cc2)C1 (centres undefined)	u	2%
CC(C)NCC(O)COc1ccc(CC(N)=O)cc1 (centres undefined)	1%&-4%&-10%&-1%	5%
COC(=O)C1=C(C)N(CCc2ccc(OC)c(OC)c2)C(=O)/C1=C\N(C)C	0%	5%
CC(C)OCCCNC(=O)c1ccc2c(=O)n(Cc3ccc4c(c3)OCO4)c(=S)[nH]c2c1	-1%	1%
CN(C)/C=C/C=C1C(=O)CCCC1=O	1%	22µM*
Cc1cc(C(=O)Nc2ccccc2)c2ccccc2n1	-1%	3%
O=C(COc1ccccc1Cl)NC(=S)N1CCc2ccccc21	26%	6%
COc1ccc(CCC(=O)OC(C)C(=O)c2ccc(C)cc2)cc1 (centres undefined)	6%	x
COc1ccc(NC(=O)CN2C(=O)NC(C)(C3CC3)C2=O)cc1S(=O)(=O)N1CCCCC1 (centres undefined)	x	1%
Continued.
SMILES	N370S GC mod	TDP1 block
CCOc1ccc2cc(C#N)c(SCC(=O)OC)nc2c1	2%	1%
Cc1cc(C)cc(NC(=O)Cn2c(=O)c3ccccc3n3nncc23)c1	x	6%
O=C(CCSc1ccccc1)NC(=O)COC(=O)C1CCCCC1	4%	3%
CCOC(=O)C1=C(N)OC(CCl)=C(C#N)C1c1ccsc1 (centres undefined)	4%	5%
CCNC(=O)COC(=O)CCC(=O)c1ccc(F)cc1	-11%	-2%
O=C(NC(=S)Nc1ccccc1Br)C1CCCC1	25%	2%
COc1ccc(Nc2ncnc3sc(C)cc23)c(OC)c1	1%	4%
Cc1nnc(SCC(=O)NNC(=O)c2ccco2)n1-c1cccc(Cl)c1	-6%	0%
Clc1ccc(OC2CCN(Cc3nc(CC4CC4)no3)CC2)cc1	1%	-3%
O=C(NCC(c1ccco1)N1CCc2ccccc2C1)c1ccc(F)cc1 (centres undefined)	6%	1%[0.505 µM]
Cc1cnc(NCCc2ccccc2)s1	0%	x
CSc1ccccc1NC(=O)c1ccc(N2CC3CC(C2)c2cccc(=O)n2C3)c(NC(=O)c2ccncc2)c1 (centres undefined)	-2%	1%
CS(=O)(=O)N1CCCC(C(=O)Nc2ccccc2F)C1 (centres undefined)	5%	x
CCCCOC(=O)CCN1C(=O)/C(=C2\SC(=S)N(CCC(=O)OCCCC)C2=O)SC1=S	6%	3%
Cc1nc(SCC(O)CO)c([N+](=O)[O-])[nH]1 (centres undefined)	-6%	0%
O=C(Cc1ccc(Cl)cc1)Nc1ncccn1	-1%	-2%
Cc1cccc(-n2c(=O)[nH]c3c(C(N)=O)nc(CC(C)C)nc32)c1	15%	-4%
O=c1[nH]c(N2CCc3ccccc32)nc2c1CCCC2	2%	0%
O=C(c1cc(Br)c[nH]1)N1CCSCC1	1%	x
O=C(O)CCN1C(=O)C2C3c4ccccc4C(c4ccccc43)C2C1=O (centres undefined)	-8%	-1%
O=C(Nc1ccc(C(=O)O)cc1)/C(=C/c1cccc(Br)c1)NC(=O)c1ccco1	-13%	5%
O=C1CCC([N+](=O)[O-])C(c2cccc([N+](=O)[O-])c2)N1 (centres undefined)	-2%	u
CC(C)CN(C(=O)c1ccco1)c1nc2ccccc2s1	19%	x
CC(OC(=O)COc1ccccc1Cc1ccccc1)C(=O)N(C)c1ccccc1 (centres undefined)	3%	x
CCOC(=O)c1cccc(NC(=O)Cn2cc3c(n2)CCC(C)C3)c1 (centres undefined)	1%	3%
Cc1ccc(C)c(NC(=O)CSc2nnc(C)c(=O)n2N)c1	2%	1%
O=[N+]([O-])c1cccc(S(=O)(=O)NCCc2cn3ccccc3n2)c1	2%	x

Bioassay records deposited in PubChem by National Center for Advancing Translational Sciences (NCATS).
